Screens: PubChem, several laboratories
Hsc70 ATP site – Hsc70 inhibitors, probe displacement, primary screen, biochemical, fluorescence polarization (AID 568); Hsc70 fluorescence polarization, probe displacement; higher % means a stronger effect; strong numbers were not always called active; 83,000 tested, under 10 active; displacement, % at 20 µM, or IC50 in µM where a hit was titrated;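 active = displacement above 50% without optical interference and an IC50 on retest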;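 also: ATPase domain with a fluorescein-tagged ATP probe; 0% = vehicle and 100% = excess ADP; read after one hour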
MT1-MMP promoter – MT1-MMP gene expression reporter suppression – cell-based, luciferase reporter, luminescence (AID 618); calls from a first round at 10 µM; hits with a dose series show EC50 in µM; MT1-MMP promoter luciferase reporter cells, luminescence; 87,000 compounds, 0.62% hits;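 active = over half of the reporter light lost at 10 µM or EC50 under 50 µM; inactive = the rest and hits that failed the dose series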;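 also: actives suppress MT1-MMP promoter-driven transcription so potencies describe inhibitors; HT1080 fibrosarcoma cells; overnight exposure; toxic or luciferase-blocking compounds were not removed from the actives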
WNV protease inh – WNV NS2B-NS3 proteinase inhibition. P06935. z-score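 (tested at a level between 10 and 100 µM)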. WNV NS2B-NS3 protease, fluorogenic substrate Ex360/Em465; hits give low values. AID 577. 65,000 compounds, 0.18% hits;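 active = z-score at -3 or under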;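 also: score is relative to mean and spread of the compound wells of a plate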
Target sequence (P06935 1371-1501 limits assumed): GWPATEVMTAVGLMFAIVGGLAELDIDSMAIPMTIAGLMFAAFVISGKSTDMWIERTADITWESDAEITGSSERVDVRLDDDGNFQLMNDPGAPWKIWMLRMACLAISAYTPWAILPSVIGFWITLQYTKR
Target sequence (P06935 1502-1679 limits assumed): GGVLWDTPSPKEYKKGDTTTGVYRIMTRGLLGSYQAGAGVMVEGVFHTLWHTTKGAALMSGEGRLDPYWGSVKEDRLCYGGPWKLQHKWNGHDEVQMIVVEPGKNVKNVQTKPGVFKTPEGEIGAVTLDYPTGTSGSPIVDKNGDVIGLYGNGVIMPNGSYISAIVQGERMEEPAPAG
* hit, by the source's call; i = inactive; / = not tested or not shown.

Value order – Hsc70 ATP site, MT1-MMP promoter, WNV protease inh
Cc1cc2ncc(C(=O)Nc3ccccc3)c(C)n2n1
    -8.2%, i, -0.55
O=C(CCn1cnc2ccccc2c1=O)Nc1ccc(S(=O)(=O)N2CCCCC2)cc1
    3.4%, i, 0.45
COc1ccc(OC)c(C2=Nn3c(nnc3-c3ccncc3)SC2)c1
    -6.8%, i, -0.4
Cc1c(Nc2cc(=O)oc3ccccc23)c(=O)n(-c2ccccc2)n1C
    5.1%, i, 0.1
CCn1c(CC(=O)Nc2ccc(C)cc2)nnc1SCC(=O)Nc1nc(C)cs1
    -5.1%, i, /
CCOC(=O)CN(c1ccccn1)S(=O)(=O)c1ccccc1
    5.1%, i, /
CCOc1ccc(N=Cc2c(O)n(-c3cccc(C)n3)c(=O)c3ccccc23)cc1
    -6.9%, i, /
CN1C(c2ccc(F)cc2)=CS/C1=C(\C#N)c1nnc2n1-c1ccccc1SC2
    5.3%, i, 0.51
COC(=O)c1ccc(NC(=O)c2ccccc2SC)cc1
    -6.0%, i, /
CCOc1ccc(N2C(=O)CC(N3CCN(C(=O)CN4CCCC4)CC3)C2=O)cc1 (stereo not given)
    0.2%, i, 1.5
CC1CCN(CCCNC(=O)c2coc3nc4ccccc4nc23)CC1
    -5.6%, i, 1.4
O=C(COC(=O)c1cc[n+]([O-])cc1)Nc1ccc2c(c1)OCCO2
    3.3%, i, 0.38
CC1NC(=O)NC1CCCCCC(=O)NCCc1ccccc1 (stereo not given)
    1.2%, i, 0.57
N#Cc1nc(COc2ccccc2Cl)oc1N1CCCCCC1
    3.5%, i, -1.7
O=C(Nc1ccccc1N1CCN(c2ccc(F)cc2)CC1)C1CCCCC1
    -6.4%, i, 1.6
c1ccc(CSc2nnc(-c3cccs3)o2)cc1
    -0.6%, i, -1.3
CCOC(=O)CCP(=O)(O)C(O)(c1ccccc1)c1ccccc1
    0.5%, i, /
CC(=O)N(CN1C(=O)C2CC=CCC2C1=O)c1cccc(Cl)c1 (stereo not given)
    10%, i, 1.6
COC(=O)c1cn(NC(=O)C2CCCCC2)c(=O)c2ccccc12
    -3.5%, i, -1.1
COc1ccc(CC(=O)Nc2ccc(OC)c(NC(=O)c3ccco3)c2)cc1
    9.1%, i, -0.04
COCCCNC(=O)c1c(F)c(F)c(F)c(F)c1F
    11%, i, 0.84
CCN(CC)CCOC(=O)C1c2ccccc2Oc2ccccc21
    3.5%, i, /
CC(C)(NO)/C(=N/O)c1cccs1
    2.3%, i, 1.4
CCOC(=O)c1c(C)c(C(=O)NC2CCCCCC2)c(C)n1C
    -0.3%, i, 0.37
O=C(NCc1ccccc1)C(c1cccs1)N(C(=O)c1csnn1)C1CC1 (stereo not given)
    -3.1%, i, -0.37
Cc1ccc2c(c1)cc(CN(Cc1ccco1)S(=O)(=O)c1ccccc1)c1nnnn12
    -2.9%, i, -0.75
COc1ccc(-c2nn(-c3ccccc3)cc2C(=O)NCCCn2ccnc2)cc1
    -7.4%, i, -0.76
Cc1nc(C)c(-c2csc(NCc3ccco3)n2)s1
    5.3%, i, -0.01
O=C(NCc1cccs1)C1CCC(=O)N1C1CCCCC1 (stereo not given)
    1.3%, i, -0.85
Cc1cc(CN(C)C)c(O)c(C2(C)CCCCC2)c1
    2.4%, i, -0.29

Just MT1-MMP promoter and WNV protease inh, for some of the entries so far:
Structure | MT1-MMP promoter | WNV protease inh
CCn1c(CC(=O)Nc2ccc(C)cc2)nnc1SCC(=O)Nc1nc(C)cs1 | i | /
CCOC(=O)CN(c1ccccn1)S(=O)(=O)c1ccccc1 | i | /

New compounds follow:
Value order – Hsc70 ATP site, MT1-MMP promoter, WNV protease inh
COc1ccc(CC2CCOC2=O)cc1 (stereo not given)
    0.0%, i, -0.95
COc1cccc(OC)c1C(=O)Nn1c(C2CCC2)nc2ccccc2c1=O
    4.1%, i, 2.2
Cc1ccc(NC(=O)CSC2=C(C#N)C(c3ccco3)CC(=O)N2)cc1 (stereo not given)
    6.0%, i, /
Cc1cccc(N2C(=O)C3C4C=CC(C4)C3C2=O)c1 (stereo not given)
    6.7%, i, 0.48
CCCCCCSC1=C(C#N)C(c2ccccc2)CC(=O)N1 (stereo not given)
    -2.1%, i, 0.84
COc1ccc(N2CCN(C(=O)CSc3nnc(-c4cccnc4)n3-c3ccccc3)CC2)cc1
    4.1%, i, -0.76
COc1ncnc2c1NC(=O)CS2
    -2.9%, i, -0.46
COc1cc(C2C(C#N)=C(C)NC3=C2C(=O)CC(C)(C)C3)ccc1OCCO (stereo not given)
    -7.8%, i, -0.68
CC(=O)Nc1sc2c(c1CN1CCN(c3ccc(F)cc3)CC1)CCCC2
    -1.6%, i, /
CCOC(=O)C1CCN(c2nc3ccccc3nc2C(C#N)C(=O)OC(C)C)CC1 (stereo not given)
    -60%, i, -0.56
COc1cccc(C(=O)Nc2ccccc2N2CCCC2)c1
    3.0%, i, 0.05
Cc1cc(N)ccc1S(C)(=O)=O
    -1.8%, i, /
Cc1ccccc1-n1nc2c(c1NC(=O)c1ccc(Br)o1)CSC2
    -6.4%, i, -0.02
O=C(CCC(=O)N(CC(=O)NC1CCCC1)C1CCCC1)Nc1ccccn1
    1.8%, i, 1.7
CC1CN(S(=O)(=O)Cc2ccccc2)CC(C)O1 (stereo not given)
    -1.7%, i, 0.33
C(=N\n1cnnc1)/c1cn(Cc2ccccc2)c2ccccc12
    7.8%, i, -0.48
Cc1ccc(C)c(Cn2cnc3c(nnn3-c3ccc(F)cc3)c2=O)c1
    -1.1%, i, 0.3
CC1(C)CC(=O)c2sc(NC(=O)c3cccs3)nc2C1
    1.1%, i, /
COC(=O)C1=C(C)NC(C)=C(C(=O)OC)C1c1ccc(NC(C)=O)cc1
    -4.8%, i, 0.16
COCCn1nnnc1C(c1ccccc1OC)N1CCc2ccccc2C1 (stereo not given)
    -5.2%, i, -0.57
Cc1ccc(N2C(=O)SC(N(CC(=O)O)c3cccc(C)c3)C2=O)cc1 (stereo not given)
    -2.3%, i, 1.7
Cc1cc(C(=O)CSc2nc3ccc(Cl)cc3[nH]2)c(C)n1CC1CCCO1 (stereo not given)
    -1.7%, i, /
CCCC(=O)Nc1cnc(NC(=O)c2cccc(F)c2)cc1C
    6.0%, i, 0.32
CCc1nnc(NC(=O)CCC(=O)NCc2ccccc2OC)s1
    -4.1%, i, /
Cc1nnc(SCSc2nnc(C)s2)s1
    -2.9%, i, 0.05
CCN1C(=O)C(O)(CC(=O)c2ccc3c(c2)OCCO3)c2ccccc21 (stereo not given)
    4.5%, i, -0.7
CCOC(=O)c1oc2ccc3c(c2c1C)C(=O)CC1(CCN(C(=O)OCC)CC1)O3
    -12%, i, 0.83
CCCC(=O)c1ccc(N2CCN(C(=O)c3ccccc3Br)CC2)c(F)c1
    -4.6%, i, -0.41
c1ccc(-n2ncc3c2ncn2nnnc32)cc1
    12%, i, -0.4
Cc1cc(C)c(-n2c(O)c(C=NCCN3CCOCC3)c(=O)[nH]c2=O)c(C)c1
    -0.1%, i, -0.67
CCc1nc(SCC(=O)Nc2ccc3c(c2)OCCO3)c2oc3ccccc3c2n1
    -1.7%, i, 1.1
O=C(CN(c1ccc(F)cc1)S(=O)(=O)c1ccc2c(c1)OCCO2)NCC1CCCO1 (stereo not given)
    5.6%, i, -0.25
Cc1cc(NC(=O)CSc2nc3ccc(Cl)cc3[nH]2)no1
    3.5%, i, /
COc1cc(C2c3c(oc4c(C)cc(C)cc4c3=O)C(=O)N2Cc2cccnc2)cc(OC)c1OC (stereo not given)
    2.7%, i, -0.44
Cc1noc(C)c1COC(=O)c1cc(=O)[nH]c2ccccc12
    -0.1%, i, 0.58
COc1cc(-c2c(C#N)c(N)nc3c2CCCC3)ccc1O
    4.9%, i, 1.4
COc1cc(CNc2ccccc2SC)ccc1O
    -3.1%, i, -0.16
O=C(c1c(F)cccc1F)N1CCC(O)(c2cccnc2)CC1
    -3.7%, i, -0.13
Cc1ccc(N2C(=O)c3ccccc3C2=O)cc1Cl
    3.9%, i, -0.08
Cc1noc(C)c1CSCC(=O)NC1=NCCS1
    6.3%, i, -0.36
COc1ccccc1N=C1SC(C)CN1C(=O)C1CCC1 (stereo not given)
    -4.9%, i, -0.3
CC(NC(=O)c1cnc2n(c1=O)CCS2)c1ccccc1 (stereo not given)
    4.5%, i, 0.24
O=C(Nc1ccc(F)cc1F)c1cc(-c2ccco2)on1
    -3.6%, i, -0.51
CS(=O)(=O)N(CC(=O)Nc1cccc(Cl)c1)c1ccccc1Cl
    2.2%, i, /
CCC(Sc1nncn1C)C(=O)Nc1nnc(-c2ccccc2Cl)s1 (stereo not given)
    -3.2%, i, 1.8
C=CCOc1c(OC)cc(Cl)cc1C1NC(=O)NC(C)=C1C(C)=O (stereo not given)
    -0.1%, i, 0.43
Cc1sc2ncnc(NCC(c3ccco3)N(C)C)c2c1C (stereo not given)
    -1.1%, i, -0.24
CN(C(=O)COC(=O)c1c[nH]c(=O)[nH]c1=O)C1CCCCC1
    -8.3%, i, /
O=c1oc2ccccc2c2c1ncn2CCN1CCOCC1
    4.8%, i, -0.52
C=CCn1c2ccccc2n2nc(C)c(=O)nc12
    2.7%, i, /
COc1cccc(NC(=O)CSc2nnc(Cc3cccn3C)n2-c2ccc(F)cc2)c1
    3.9%, i, -0.19
O=C(O)C1CCCN1S(=O)(=O)c1ccc(Cl)c(Cl)c1 (stereo not given)
    -3.4%, i, -0.06
Cc1ccc(C)c(Cn2nnc3c(=O)[nH]c(C4CCCN(C(=O)C5CCC5)C4)nc32)c1 (stereo not given)
    -4.8%, i, -0.65
Cc1ccc(Cc2c(C)nc3nc(SCC(=O)NCc4ccco4)nn3c2C)cc1
    3.8%, i, 0.05
OCc1nc2ccccc2n1CCCOc1ccc(Br)cc1
    8.1%, i, -0.2
CN(CCC#N)C(=O)CSc1ncnc2sc(-c3ccccc3)cc12
    -0.1%, i, -0.35
CCCCSc1nnc(-c2ccc(C)cc2)n1C
    -4.0%, i, /
COc1cccc(C(=O)NC(C)C(c2cccs2)N2CCN(C)CC2)c1 (stereo not given)
    -5.9%, i, -1.4
COCC(=O)NC1CC2CCCC(C1)N2Cc1ccccc1 (stereo not given)
    -3.2%, i, -1.1
CCN(CC)c1ccc(NC(=O)C2CCCN(S(=O)(=O)c3cnc[nH]3)C2)c(C)c1 (stereo not given)
    -1.9%, i, 0.23

Later entries.
| smiles | Hsc70 ATP site | MT1-MMP promoter | WNV protease inh |
| --- | --- | --- | --- |
| CC(=O)SCC(=O)N=c1sc2cc(F)ccc2n1C | -3.7% | i | -0.63 |
| CCc1cc2c(NCCO)ncnc2s1 | -7.4% | i | -0.57 |
| Cc1ccc(-c2nnc(N3CCCCC3)c3ccccc23)cc1S(=O)(=O)N1CCN(C)CC1 | 2.8% | i | 1.1 |
| COc1ccc(C2CC(=O)c3cnc(N4CCN(Cc5ccccc5)CC4)nc3C2)cc1 (stereo not given) | 0.0% | i | 0.48 |
| O=C(Cn1c(NCCCO)nc2ccccc21)c1ccc(Br)cc1 | -3.2% | i | -0.44 |
| CCOc1ccc(N2CCn3c2nc2c3c(=O)n(CCc3ccccc3)c(=O)n2C)cc1 | 0.3% | i | -0.1 |
| CCn1c(SCc2cccc(C)c2)nnc1-c1ccc(C)cc1 | 6.5% | i | / |
| COC(=O)Nc1ccc(S(=O)(=O)N(CCO)CCO)cc1 | -0.6% | i | / |
| COC(=O)c1cccc(NCN2C(=O)c3ccccc3C2=O)c1 | 2.2% | i | 0.61 |
| Fc1ccc(C(c2ccc(F)cc2)N2CCN(C/C=C/c3ccccc3)CC2)cc1 | 4.9% | i | -0.8 |
| O=C(CCCC(=O)N(CC(=O)NC1CCCCC1)Cc1ccccc1)Nc1ccccn1 | -1.5% | i | / |
| NS(=O)(=O)c1ccc(NC(=O)c2ccccc2C(=O)N2CCCCC2)cc1 | -0.2% | i | -0.04 |
| C=C(Cl)COc1ccc2c(CC)cc(=O)oc2c1 | -2.0% | i | 0.76 |
| Cn1cccc1Cc1nnc(SCC(=O)Nc2ccc3c(c2)OCO3)n1CCc1ccccc1 | 2.0% | i | 1.5 |
| CC(C)c1c(O)nc(SCCN(C)C)[nH]c1=O | 5.7% | i | 0.01 |
| COc1ccc(CCNS(=O)(=O)c2cccc(S(=O)(=O)N3CCCC3)c2)cc1OC | -1.9% | i | 0.34 |
| COC(=O)c1cccc(NC(=O)CSc2ncn[nH]2)c1 | 3.0% | i | -0.2 |
| COC(=O)c1ccccc1NC(=O)Nc1cccs1 | -8.4% | i | -0.3 |
| Cc1ccc2[nH]c(=O)c(CN(Cc3ccccc3)Cc3nnnn3C3CCCC3)cc2c1 | -0.7% | i | 0.67 |

Arranged by SMILES length (low to high): some entries from above.
| smiles | Hsc70 ATP site | MT1-MMP promoter | WNV protease inh |
| --- | --- | --- | --- |
| CCc1cc2c(NCCO)ncnc2s1 | -7.4% | i | -0.57 |
| COC(=O)c1cccc(NC(=O)CSc2ncn[nH]2)c1 | 3.0% | i | -0.2 |
| COC(=O)Nc1ccc(S(=O)(=O)N(CCO)CCO)cc1 | -0.6% | i | / |
| NS(=O)(=O)c1ccc(NC(=O)c2ccccc2C(=O)N2CCCCC2)cc1 | -0.2% | i | -0.04 |
| Fc1ccc(C(c2ccc(F)cc2)N2CCN(C/C=C/c3ccccc3)CC2)cc1 | 4.9% | i | -0.8 |
| COc1ccc(C2CC(=O)c3cnc(N4CCN(Cc5ccccc5)CC4)nc3C2)cc1 (stereo not given) | 0.0% | i | 0.48 |
